Source: PubChem BioAssay
Cruzain inh noDet: blocks cruzain activity in detergent-free assay. P25779. purified cruzain, Z-FR-AMC fluorescence, no detergent. Potency, µM, for inactives: max response, negative = inhibition, usual class: inhibitors. 2.3% of 200,000 active;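 further: plate controls were enzyme without inhibitor for no effect and buffer without enzyme for full effect; nearly all actives have a fitted effect of over 40% in size; top concentration of the series not given in the record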
Target sequence (P25779 123-467 limits assumed): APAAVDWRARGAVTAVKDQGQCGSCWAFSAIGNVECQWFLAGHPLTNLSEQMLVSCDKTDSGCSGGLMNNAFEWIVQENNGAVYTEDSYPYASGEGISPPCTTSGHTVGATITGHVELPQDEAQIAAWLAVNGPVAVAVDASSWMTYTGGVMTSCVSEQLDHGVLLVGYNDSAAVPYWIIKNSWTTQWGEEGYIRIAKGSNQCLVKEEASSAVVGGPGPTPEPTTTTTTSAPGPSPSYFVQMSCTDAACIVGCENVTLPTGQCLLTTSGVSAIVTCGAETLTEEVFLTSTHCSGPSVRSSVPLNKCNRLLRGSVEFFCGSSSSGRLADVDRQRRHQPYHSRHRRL
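Detergent-free condition (0.00005% Triton X-100) in acetate buffer pH 5.5 with DTT. 1.5 nM enzyme and compound were pre-mixed 15 min, then 2 uM Z-FR-AMC substrate added; reaction progress from fluorescence change between first and third reads (60 s).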
SARS PLpro yeast: inhibitors of SARS-CoV papain-like protease in yeast | S. cerevisiae expressing SARS-CoV PLpro, growth rescue; control for the full effect not named in the record | AID 485353 | 0.19% of 330,000 active | Potency, µM (top dose mostly 32.9 µM), inactives show top-dose activity, positive = growth rescue; active means well fitted rising curve with a large enough effect; inconclusive means small, poorly fitted or top-dose-only effect; inactive means no such curve, though single readings can be large or run the other way; further: 0% is about no effect; nearly all actives have a fitted effect of over 55% in size; growth read by luminescence after 48 h
RE007 growth inh: less growth of the S. pombe RE007 Vpr strain; S. pombe RE007 Vpr strain, BacTiter-Glo ATP luminescence, 24 h; control for the full effect not named in the record; 0.21% of 360,000 active; Potency, µM (highest dose often 92.2 µM), inactives show at the highest dose activity change, negative = less growth; active = well fitted falling curve with a large enough effect; inconclusive = small, poorly fitted or top-dose-only effect; inactive = no such curve, though single readings can be large or run the other way;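 further: on the % scale 0 is the no-effect control and ±100 the full control effect; nearly all actives have a fitted effect of over 50% in size; the assay follows cell death caused by Vpr and the record does not say whether a fall means rescue or toxicity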
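Fission yeast strain RE007, carrying one chromosomally integrated HIV-1 vpr copy, was seeded at OD 0.01 in PMG+AL medium with 23 nL pinned compound. After 24 h at 30 °C and 99% humidity, viability was read by BacTiter-Glo luminescence.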
Cruzain inh Det: inhibitors of Trypanosoma cruzi cruzain with detergent | purified cruzain, Z-FR-AMC fluorescence, 0.01% Triton | 0.43% of 200,000 active | AID 1478 | Potency, µM, for the others: max response, negative = inhibition, most hits filed as inhibitors;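 further: plate controls were neutral wells for no effect and buffer without enzyme for full effect; nearly all actives have a fitted effect of over 40% in size; top concentration of the series not given in the record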
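Compounds were screened in titration against cruzain (1.5 nM) with 0.01% Triton X-100 to counter colloidal aggregation. Activity was the AMC fluorescence increase over 60 s after adding 2 uM Z-FR-AMC at pH 5.5.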
NS1 inh: blocks influenza NS1 protein function | AID 2326 | S. cerevisiae slowed by influenza A NS1, growth recovery by OD600 | Potency, µM (series often up to 46.1 µM), without a hit: at the top dose activity, positive = more growth | 0.4% of 270,000 active; active means well fitted rising curve with a large enough effect; inconclusive means small, poorly fitted or top-dose-only effect; inactive means no such curve, though single readings can be large or run the other way; further: nearly all actives have a fitted effect of over 50% in size
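Recovery from NS1-induced slow growth read by OD600 in budding yeast switched to galactose assay medium (pH 6.0, -URA) at 1:100 dilution. Compound 23 nl per well; the matching strain lacking NS1 serves as control.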
2A StopGo: lowers the luciferase signal of an FMDV 2A StopGo reporter | human cells with a luciferase reporter of 2A StopGo recoding; control for the full effect not named in the record | Potency, µM (highest dose often 57.9 µM), for inactives: top-dose signal change, negative = less light | 1.2% of 410,000 active; active = well fitted falling curve with a large enough effect; inconclusive = small, poorly fitted or top-dose-only effect; inactive = no such curve, though single readings can be large or run the other way; tested in HEK293T cells; further: on the % scale 0 is the no-effect control and ±100 the full control effect; nearly all actives have a fitted effect of over 45% in size; luciferase light after 4 h
Lassa entry inh: inhibitors of Lassa virus binding or cell entry; Lassa virus pseudotype entry inhibition, cell reporter; control for the full effect not named in the record; Potency, µM (doses to about 37.9 µM), without a hit: at the highest dose activity change, negative = inhibition, actives largely listed as inhibitors; 1.2% of 300,000 active; AID 540256; active means well fitted inhibition curve with a large enough effect; inconclusive means small, poorly fitted or top-dose-only effect, or effect the other way; inactive means flat fitted curve, though single readings scatter; tested in HEK293 cells; further: on the % scale 0 is the no-effect control and ±100 the full control effect; nearly all actives have a fitted effect of over 50% in size; luciferase read-out
MARV entry inh: blocks Marburg virus binding to or entry into cells | Marburg virus pseudotyped entry inhibition, cell reporter; control for the full effect not named in the record; about a third of the inactives were read at about 46 µM | Potency, µM (top dose mostly 37.8 µM), inactives show at the highest dose activity change, negative = inhibition, usual class: inhibitors | 1.8% of 300,000 active; active = well fitted inhibition curve with a large enough effect; inconclusive = small, poorly fitted or top-dose-only effect, or effect the other way; inactive = flat fitted curve, though single readings scatter; tested in HEK293 cells; about a fifth of its hits are not listed in these tables; further: on the % scale 0 is the no-effect control and ±100 the full control effect; luciferase read-out
Numbers without * were called inactive; ? = inconclusive; / = no result given; & = joins results of further samples; [ ] = dose if it differs, or a comment. Unless noted, the call rests on the fitted dose curve; in most records, active means well fitted curve in the direction sought with a large enough effect; inconclusive means small, poorly fitted or top-dose-only effect, or another doubt; inactive means no such curve, though single readings can be large; an effect the other way counts as inactive or inconclusive. Potency means the concentration at half of the fitted maximal effect.

SMILES | Cruzain inh noDet | SARS PLpro yeast | RE007 growth inh | Cruzain inh Det | NS1 inh | 2A StopGo | Lassa entry inh | MARV entry inh
CCN(C(=O)C1CCN(S(=O)(=O)c2ccc3c(c2)CCCN3C(C)=O)CC1)c1cccc(C)c1 | ? | / | / | -1.1% | / | ? | -6%[46.1 µM] | /
Cc1nn(CC(=O)NC2CCS(=O)(=O)C2)c(C)c1[N+](=O)[O-] (centres undefined) | / | 4% | -21% | / | / | -1% | 21% | ?
CCOC(=O)c1c(Nc2ccccc2)nnc(-c2ccccc2)c1-c1ccccc1 | -16% | / | / | -2.8% | / | ? | ? | 1%[46.1 µM]
Cc1ccc2c(CN3C(=O)NC4(CCCCC4)C3=O)cc(=O)oc2c1C | ? | 1% | 1% | -4.3% | -16% | 12% | 11% | 7%
CCN1/C(=C2/SC(=S)N(NC(C)=O)C2=O)Sc2ccccc21 | / | 0% | 9% | / | 17% | -16% | / | /
Cc1ccc(C(=O)Nc2ccccc2N2CCCCC2)cc1 | / | -6% | -5% | / | -68% | -20% | -4%[46.1 µM] | -18%[46.1 µM]
COc1ccccc1C(=O)N(Cc1nc(-c2ccc(Cl)cc2)no1)C(C)C | 11% | 1% | 5% | -4.0% | -86% | ? | / | /
NS(=O)(=O)c1ccc(CNc2ncnc3sccc23)cc1 | / | -1% | 0% | / | 0% | -27% | -1% | 2%[46.1 µM]
CC(OC(=O)c1cc[n+]([O-])cc1)C(=O)Nc1ccc(Cl)cn1 (centres undefined) | 5% | 0% | -1% | 2.0% | -2% | -4% | -2% | 4%
CCC(C)(C)NC(=O)/C=C/c1cnc2ccccc2n1 | -2% | 4% | -8% | -4.8% | -2% | 62%[activator] | ? | ?
CN(C(=O)COC(=O)CNC(=O)c1ccccc1Cl)c1ccccc1 | / | 1% | 10% | / | 3% | 7% | 20% | ?
O=c1c(Cl)c(NCCO)ncn1-c1ccccc1 | -3% | -2% | 24% | -1.8% | -4% | 3% | 7% | ?
CCc1ccc(NC(=O)Cn2c3ncccc3c(=O)n2-c2ccc(C)c(C)c2)cc1 | 5% | / | / | -0.5% | / | -6% | 7%[46.1 µM] | /
Cc1cc(O)ccc1Nc1nc(-c2cccnc2)cs1 | / | -4% | 108% | / | 4% | 30%[activator] | 5% | /
O=C(NCCC1=CCCCC1)C1CCN(c2nnc(-n3cccc3)s2)CC1 | 4% | 3% | 3% | -0.9% | -5% | 0% | / | /
CCOc1ccccc1C1CC(c2cccs2)=NN1S(C)(=O)=O (centres undefined) | / | 0% | 3% | / | 1% | 31%[activator] | 23% | ?
CCOC(=O)C1=C(N)Oc2cc(O)ccc2C1c1cccc(Cl)c1 (centres undefined) | / | -7% | 3% | / | 1% | -24% | -16% | ?
COc1ccc2c(c1)c1c(c(=O)n(CCc3ccccc3)c(=O)n1Cc1ccc(Cl)cc1)n2C | 0% | / | / | -0.1% | / | -13% | ? | /
Cc1ccccc1OCC(=O)N/N=C/c1c(C)nn(-c2ccccc2)c1Cl | 2% | 3% | 6% | -11% | -9% | 2% | -8% | 0%
COC(=O)c1cc2oc(C)cc2n1Cc1cc(C)ccc1C | -2% | / | / | -11% | / | -13% | / | 7%[46.1 µM]
O=c1[nH]c(SCc2ccccc2)nc2c1sc1ccccc12 | / | 1% | -14% | / | / | 2% | -4% | 10%[46.1 µM]
COc1cc2sc(C)nc2cc1C | / | 9% | 18% | / | / | 0% | 9% | ?
COc1ccc(-n2nnc(-c3nc(-c4cccs4)no3)c2N)cc1 | 10% | / | / | -0.3% | / | 25% | 21%[46.1 µM] | /
CC(C)N(C)CCOC(=O)c1ccc2c(c1)OCCO2 | 2% | -2% | -4% | -2.3% | 0% | 28% | 2% | 8%
CC(SC(=S)N1CCCC1)C(=O)O (centres undefined) | / | 13% | 2% | / | 0% | 3% | -8% | -3%[46.1 µM]
O=C1CCCc2c1cc(C(=O)O)c(=O)n2-c1ccccc1 | / | 1% | 3% | / | 2% | 5% | 5% | 5%[46.1 µM]
CCOC(=O)N1CCN(S(=O)(=O)N2CCCC(C(=O)NCCCN3CCCCC3)C2)CC1 (centres undefined) | / | 0% | -8% | / | 3% | -3% | / | /
CC(=C/c1ccccc1)/C=N/Nc1nc(N2CCCCC2)nc(N2CCCCC2)n1 | -10% | 11% | -8% | -3.6% | 16% | -7% | -9% | -2%
COc1ccc(C(=O)c2ccc(OC)c(N)c2)cc1N | -22% | -7% | 9%[3.69 µM] | -0.2% | 13% | 8% | 14% | -13%
COc1ccc(C(=O)Nc2cc(OC)nc(OC)n2)cc1 | 1% | 16% | -30% | -4.4% | -9% | 7% | ? | -24%
Cn1c(CSc2nc3ccccc3s2)nnc1SCC(=O)NCc1ccccn1 | 5% | 11% | -13% | 6.9% | -1% | 5% | 8% | 4%
O=C(CSCc1ccc(F)cc1)N1CCc2c([nH]c3ccccc23)C1c1ccc(Cl)cc1 (centres undefined) | 7.9µM* | / | / | 5.4% | / | -29% | ? | /
CC(C)(C)NC(=O)CSc1nc(-c2ccc(F)cc2)cs1 | / | -3% | 4% | / | -3% | -6% | ? | ?
COC(=O)CN=Cc1c(O)n(-c2ccc(Cl)cn2)c(=O)c2ccccc12 | / | 4% | 14% | / | / | -14% | 4% | 2%[46.1 µM]
CC(C)c1ccc(OCC(=O)N(c2ccccn2)C2CCCCC2)cc1 | -4% | -18% | 17% | 7.3% | -36% | -8% | -13% | ?
O=C(NC1CCCC1)C(c1ccccn1)N(C(=O)c1csnn1)c1ccccc1F (centres undefined) | / | 0% | -2% | / | -5% | -12% | 17% | 10%[46.1 µM]
Clc1ccc(-c2cn3cccnc3n2)cc1Cl | ? | -15% | -9% | -3.4% | -64% | 49%[activator] | ? | 15%[46.1 µM]
CN(C)c1nc(N)nc(/C(C#N)=C/C2CC3C=CC2C3)n1 (centres undefined) | 2% | -2% | 0% | -0.1% | 7% | -6% | 2% | -7%[46.1 µM]
Cc1cc(NC(=O)c2cccc(N3C(=O)CCC3=O)c2)no1 | 5% | -3% | 4% | 3.9% | 1% | / | 66% | 3%
CN(C)CCCNC1=CC(=O)OC12CCCCC2 | -9% | 5% | 31% | 0.1% | 7% | -24% | 17% | ?

Copied from the listing, four compounds:
SMILES | Cruzain inh noDet | SARS PLpro yeast | RE007 growth inh | Cruzain inh Det | NS1 inh | 2A StopGo | Lassa entry inh | MARV entry inh
CC(C)(C)NC(=O)CSc1nc(-c2ccc(F)cc2)cs1 | / | -3% | 4% | / | -3% | -6% | ? | ?
COC(=O)CN=Cc1c(O)n(-c2ccc(Cl)cn2)c(=O)c2ccccc12 | / | 4% | 14% | / | / | -14% | 4% | 2%[46.1 µM]
CC(C)c1ccc(OCC(=O)N(c2ccccn2)C2CCCCC2)cc1 | -4% | -18% | 17% | 7.3% | -36% | -8% | -13% | ?
O=C(NC1CCCC1)C(c1ccccn1)N(C(=O)c1csnn1)c1ccccc1F (centres undefined) | / | 0% | -2% | / | -5% | -12% | 17% | 10%[46.1 µM]

More entries:
SMILES | Cruzain inh noDet | SARS PLpro yeast | RE007 growth inh | Cruzain inh Det | NS1 inh | 2A StopGo | Lassa entry inh | MARV entry inh
COc1ccc(C2CC(=O)N(Cc3ccccc3C)c3c2c(C)nn3-c2nc(C)cc(C)n2)c(OC)c1 (centres undefined) | 5% | / | / | -0.6% | / | -18% | -11%[46.1 µM] | -1%[46.1 µM]
COc1cc(CNc2nc(C)c([N+](=O)[O-])c(C)c2C#N)cc(OC)c1 | 7% | -3% | 3% | -1.6% | 4% | -25% | -3% | -11%
Cc1nn(-c2nc3ccccc3[nH]2)c(N)c1-c1ccc(Cl)cc1 | ? | -32% | ? | -3.0% | -7% | -3% | -11% | ?
CCOP(=S)(OCC)N1CC1 | / | / | 2% | / | / | -19% | 24% | -2%
CCOC(=O)N1CCN(c2cc(C)nc3nc(C)nn23)CC1 | -1% | 3% | -1% | -2.3% | ? | -11% | / | /
Cc1cc(C(F)F)n2nc(C(=O)Nc3ccccc3F)nc2n1 | -3% | -2% | 16% | 2.0% | -5% | -10% | 6% | 12%&3%
O=C1C2C3C=CC(C2C(=O)N1c1cccc(O)c1)C1C2C(=O)N(c4cccc(O)c4)C(=O)C2C31 (centres undefined) | / | 1% | 4% | / | / | 6% | -1% | 25%
CCOc1ccc(/C=C2\SC(=S)N(C(C(=O)O)c3ccccc3)C2=O)cc1OC (centres undefined) | / | 0% | 4% | / | -1% | 34%[activator] | / | /
Cc1ccc2[nH]cc(C(=O)CN3CCC4(CC3)OCCO4)c2c1 | -9% | 28% | 2% | -4.5% | 6% | 28% | 0% | 5%
O=[N+]([O-])c1ccc(N2CCCCC2)nc1 | 3% | -15% | -20% | -9.1% | 0% | 2% | / | 4%
CCOc1ccccc1NC(=O)c1oc2ccccc2c1NC(=O)C1CCCO1 (centres undefined) | / | 6% | -16% | / | / | ? | ? | ?
COc1cc(C(=O)Nc2c(C)cc(C)cc2C)c([N+](=O)[O-])cc1OC | -2% | 26% | 9% | -2.6% | 10% | -6% | ? | -32%
O=C(c1ccoc1)N1CCC2(CC1)Oc1ccc(F)cc1C(=O)C21CC(c2cccnc2)=NO1 (centres undefined) | / | -1% | 0% | / | 0% | -23% | / | /
O=c1c2ccccc2nc2sc(Nc3cccc(C(F)(F)F)c3)nn12 | 1% | / | / | 2.1% | / | 0% | 11%[46.1 µM] | /
CC1=C(C(=O)OC2CCC(C)CC2)C(c2ccc(O)c([N+](=O)[O-])c2)NC(=O)N1 (centres undefined) | / | 4% | 13% | / | ? | -15% | / | /

Quoted at random: 3 compounds from above, in no set order.
SMILES | Cruzain inh noDet | SARS PLpro yeast | RE007 growth inh | Cruzain inh Det | NS1 inh | 2A StopGo | Lassa entry inh | MARV entry inh
O=C(c1ccoc1)N1CCC2(CC1)Oc1ccc(F)cc1C(=O)C21CC(c2cccnc2)=NO1 (centres undefined) | / | -1% | 0% | / | 0% | -23% | / | /
COc1cc(C(=O)Nc2c(C)cc(C)cc2C)c([N+](=O)[O-])cc1OC | -2% | 26% | 9% | -2.6% | 10% | -6% | ? | -32%
O=c1c2ccccc2nc2sc(Nc3cccc(C(F)(F)F)c3)nn12 | 1% | / | / | 2.1% | / | 0% | 11%[46.1 µM] | /
